VDR inh = Inhibitors of the vitamin D receptor (VDR): qHTS. VDR-SRC2-3 peptide fluorescence polarization, 2 h. Potency, µM, without a hit: max response, negative = inhibition, usual class: inhibitors. 400,000 compounds, 0.93% hits; active = well fitted inhibition curve with a large enough effect; inconclusive = small, poorly fitted or top-dose-only effect, or another doubt; inactive = no such curve, though single readings can be large or run the other way; note: series mostly up to about 120 µM
Target sequence (P11473 whole entry, looked up): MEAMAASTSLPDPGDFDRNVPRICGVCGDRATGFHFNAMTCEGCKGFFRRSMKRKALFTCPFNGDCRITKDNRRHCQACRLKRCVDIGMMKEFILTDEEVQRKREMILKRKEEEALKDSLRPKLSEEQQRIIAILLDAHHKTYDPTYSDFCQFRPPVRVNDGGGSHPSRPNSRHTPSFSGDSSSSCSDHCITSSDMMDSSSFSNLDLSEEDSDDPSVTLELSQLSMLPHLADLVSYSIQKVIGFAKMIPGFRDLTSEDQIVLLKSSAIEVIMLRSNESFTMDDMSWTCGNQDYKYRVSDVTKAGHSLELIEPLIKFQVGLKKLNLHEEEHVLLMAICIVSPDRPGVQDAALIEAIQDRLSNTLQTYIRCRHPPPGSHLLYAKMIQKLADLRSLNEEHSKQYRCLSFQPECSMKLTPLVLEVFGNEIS
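Fluorescence polarization assay of small-molecule disruption of VDR binding to coregulator peptide SRC2-3. Compounds and controls pin-transferred, then read after 2 h incubation at ambient room temperature.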
An asterisk follows results filed as active; u = inconclusive; & = joins results of further samples; [ ] = dose if it differs, or a comment. % is set by controls: 0 for no effect and ±100 for the full control effect; potency is the fitted concentration of half-maximal effect. Only part of the results is shown; rates above refer to the full screens.

SMILES	VDR inh
CSc1ncc(CN2CCCC(C(=O)Nc3ccc(-c4ccco4)cc3)C2)cn1 (stereo not given)	u
O=C(c1ccc2c3c(cccc13)CC2)C1CCCN(C(=O)c2ccc(=O)[nH]c2)C1 (stereo not given)	u
O=C(Nc1nc2ccc([N+](=O)[O-])cc2s1)c1ccc(S(=O)(=O)N2CCCc3ccccc32)cc1	-7%
O=C(Nc1ccc(Br)cc1)c1ccc(N2C(=O)C3CC=CCC3C2=O)cc1 (stereo not given)	-5%
C/C(N)=C(/C#N)C(=O)CSc1nc2scc(-c3ccc(F)cc3)c2c(=O)n1C	1%
CCn1nnc(NC(=O)Cc2ccc(Cl)cc2)n1	1%
CN1C(=O)SC(Nc2ccccc2C(=O)O)C1=O (stereo not given)	-8%
CC1CCCN(C(=O)CNC(=O)c2sc3ccccc3c2Cl)C1 (stereo not given)	-4%
COC(=O)c1c(NC(C)=O)sc(Cc2ccccc2)c1C	-10%
CCSc1nc(=S)n(CC)c(C)c1C(C)=O	4%
CN1CCN(C(=O)CCCN2C(=O)/C(=C/c3cccc(Br)c3)SC2=S)CC1	1%
Cc1cc(-n2c(C)cc(C(=O)CSc3nnc4sc5ccccc5n34)c2C)no1	0%
CCCCCOC(=O)C1=C(C)N(C)C(=O)NC1c1cc(Br)c(O)c(OC)c1 (stereo not given)	2%
CCOC1(c2ccccc2)CC1C(=O)N/N=C/c1cccc([N+](=O)[O-])c1 (stereo not given)	-21%
COc1ccc(C(=O)OCC(=O)Nc2sccc2C(N)=O)cc1OC	-8%
CCCOC(=O)C(=O)NNc1ccccc1	-14%
CC(C)C(OC(=O)CN1C(=O)COc2ccccc21)C(=O)NC1CCCCC1 (stereo not given)	-16%
COc1cccc(NS(=O)(=O)c2ccc(OC)c(OC)c2)c1	-6%
Cc1c(NC(=O)c2cnn3c(C(F)(F)F)cc(-c4ccco4)nc23)c(=O)n(-c2ccccc2)n1C	13%
CSCCC(NS(=O)(=O)c1ccccc1F)C(=O)NC(C)c1ccccc1 (stereo not given)	-13%
COC(=O)c1c(C(=O)OC)c(-c2ccccc2)n2c1CS(=O)(=O)C2	5%
O=C(NNC1CC(=O)N(c2ccc(Br)cc2)C1=O)c1ccccn1 (stereo not given)	0%
Cc1c(C(=O)N(C)Cc2nc3ccccc3c(=O)[nH]2)oc2ccccc12	-14%
CCCCOc1ccc(/C=C/C(=O)OCC(=O)NC2CCS(=O)(=O)C2)cc1OCC (stereo not given)	7%
O=[N+]([O-])c1cccc(C(=S)N2CCCC2)c1	38%[activator]
NC(=O)Cn1c(=O)n(CCCCCC(=O)NCc2ccc(F)cc2)c(=O)c2sccc21	4%
COC(=O)c1ccc(NC(=O)c2ccccc2CC[N+](=O)[O-])cc1	-1%
CCOc1ccc(S(=O)(=O)NCC(c2ccco2)S(=O)(=O)c2ccc(C)cc2)cc1 (stereo not given)	7%
CC(NC(=O)CNC(=O)c1cccs1)c1cccc(C(F)(F)F)c1 (stereo not given)	3%
Cc1ccc2nc(NC(=O)CSc3ncc(C(=O)Nc4ccccc4)c(=O)n3C)sc2c1	10%
CCOc1cc(S(=O)(=O)N2CCN=C2Cc2ccccc2)ccc1F	-5%
O=C(COc1coc(CN2CCN(c3ccccc3F)CC2)cc1=O)NC1CCCCC1	-13%
Cc1ccccc1C(=O)N1CCN(c2ccc([N+](=O)[O-])c(NCc3cccnc3)c2)CC1	-20%
COc1cccc(N2C(=O)N(CC(=O)NCc3cccc(OC)c3OC)c3ccccc3S2(=O)=O)c1	9%
Cc1cc(Oc2ccccc2)nc(-c2ccccc2)n1	1%
COc1cc(C(=O)NC(C)CCc2ccccc2)cc(OC)c1OC (stereo not given)	-6%
COc1ccccc1N(CC(=O)N1CCC(C)CC1)S(=O)(=O)c1ccc(C)cc1	-7%
CCN(C(=O)COc1ccc(C)nc1[N+](=O)[O-])C1CCS(=O)(=O)C1 (stereo not given)	4%
Cc1cc(Cl)nc(Cl)c1C(=O)N1CCOCC1	-5%
O=C(CSc1ncn[nH]1)Nc1ccc(Cl)c(Cl)c1	-5%
CC(Oc1ccc2ccc(=O)oc2c1)C(=O)NC(Cc1c[nH]c2ccc(O)cc12)C(=O)O (stereo not given)	-8%
Cc1ccc(OCC(=O)Nc2cccc(-c3nc4ccccc4o3)c2C)cc1C	-4%
CCOc1ccc(OCC)c(NC(=O)C2CCN(S(=O)(=O)c3ccc4c(c3)CC(C)N4C(C)=O)CC2)c1 (stereo not given)	-7%&7%
Cc1cccc(N(C)S(=O)(=O)c2ccc(-c3cnc(C4CC4)o3)cc2)c1	-12%
CCN(CC(=O)Nc1ccc(NC(C)=O)cc1)C(=O)c1sc2nc3n(c(=O)c2c1C)CCC3	29%
Cc1ccc(NC(=O)CSc2nc3ccc(NC(=O)CCc4ccccc4)cc3s2)c(C)c1	9%
NC1=NC(=O)/C(=C\c2ccsc2)S1	19%
COc1ccc(CN2CCCN(CC(=O)Nc3cc(C)ccc3C)S2(=O)=O)cc1	16%
O=C1C2(c3ccccc3)CN(CCO)CC1(c1ccccc1)CN(CCO)C2	-4%
C=CCn1c(SCC(=O)Nc2sc(C)c(C)c2C(=O)OCC)nnc1-c1sc(N)nc1C	-3%
O=C(Nc1cccc(C(=O)NC2CC2)c1)c1ccccc1	4%
Cc1cc(C)c(C)c(S(=O)(=O)Nc2ccccc2C(=O)NN2CCOCC2)c1C	10%
CCNc1c(NC(=O)c2ccc3c(c2)OCO3)c(=O)oc2ccccc12	-2%
CC(=O)Nc1ccc(NC(=O)C(C)OC(=O)/C(C#N)=C/c2ccc(N(C)C)cc2)cc1 (stereo not given)	-19%
CCOC(=O)N1CCN(C(=O)c2ccc3c(c2)N(CC)CCS3)CC1	-16%
COc1ccccc1Nc1ccc(N)cc1	-3%
CCOC(=O)N1CCN(C(=O)c2cc3c(s2)-c2ccc(Cl)cc2S(=O)(=O)C3)CC1	4%
CNC(=O)COc1coc(CN2CCN(c3ccccc3)CC2)cc1=O	-19%
O=C1C=CC(=O)C(C2=C3C(=O)N(CCc4ccccc4)CC(=O)N3CCC2)=C1	32µM*
CC1CCCC(C)N1C(=O)CSc1nnc(C2CCCCC2)o1 (stereo not given)	-3%
Next part:
SMILES	VDR inh
COc1cccc(-n2c(SCC(N)=O)nnc2-c2ccco2)c1	2%
C[C@H](O)[C@@H]1C(=O)N2CCc3ccc(-c4cccc(F)c4)cc3[C@@H]2C[C@@H]1N(C)S(=O)(=O)c1ccccc1	-10%
COc1cccc(CNC(=O)C2CCN(S(=O)(=O)c3cn(C)cn3)CC2)c1	10%
CC(C)C[C@@H](CN)NC(=O)c1nc[nH]c1C(=O)N[C@@H](Cc1c[nH]c2ccccc12)C(=O)CNC[C@H](C)NC(=O)c1nc[nH]c1C(=O)N[C@@H](CC(=O)O)C(=O)O	-24%
CSc1ccccc1NC(=O)CN(C)CC(=O)Nc1ccc(Cl)cc1[N+](=O)[O-]	-4%
O=C(Cc1ccc(Cl)cc1)NNC(=S)NC(=O)c1cccnc1	-2%
O=C1CSC(c2ccccc2F)N1c1cc(Cl)ccc1O (stereo not given)	-9%
CC1=C/C(=C\c2ccc3c(c2)OCO3)C(=O)S1	-12%
CN1C2C=C3C(C#N)=C(N)C(C#N)(C#N)[C@H](c4c(F)cccc4F)[C@H]3C1CC2 (stereo not given in full)	-30%
COc1ccc(CCNC(=O)Nc2cc(F)c(F)cc2Cl)cc1OC	u
CC(Nc1ccc(Br)cc1)C(=O)N/N=C/c1ccccc1OCc1ccccc1 (stereo not given)	10%
CCn1ncc(Br)c1C(=O)NC(C)c1ccccc1 (stereo not given)	-18%
COc1ccc(CCN(Cc2ccccn2)C(=S)Nc2cccc(C)c2)cc1OC	-5%
Cc1ccc(C(=O)CCC(=O)NC2CCCC(C)C2C)cc1 (stereo not given)	5%
COC(=O)c1[nH]c2c(c1C)C(=O)CC(c1ccc(OC)c(OC)c1)C2 (stereo not given)	-5%
O=C(CSc1nnc2ccccn12)Nc1ccccc1Cl	-5%
CC(=O)Nc1ccc(S(=O)(=O)NCCSCc2ccc(Cl)cc2Cl)cc1	-4%
COc1ccc(N2CC(NC(=O)C(=O)c3c(C)[nH]c4ccccc34)CC2=O)cc1 (stereo not given)	13%
COc1ccc(CN2C(=O)CC(Cc3cc(C)cc(C)c3)C2=O)cc1OC (stereo not given)	15%
N#Cc1ccc(C(=O)NCC(c2ccco2)N2CCCC2)cc1 (stereo not given)	-9%
Cc1csc(NC(=O)CSc2nc(C)nc3c2c(=O)n(C)c(=O)n3C)n1	-1%
CC1CCN(C(=O)c2[nH]cnc2C(=O)N[C@@H](CCCCNC(=O)OC(C)(C)C)C(=O)OC(C)(C)C)CC1	-7%
COc1ccc(C2c3c(oc4ccccc4c3=O)C(=O)N2Cc2ccc3c(c2)OCO3)cc1 (stereo not given)	4%
COCCCNCCOCCOc1ccc(Cl)cc1Br	-9%
CC(C)(C)c1cc(NCc2ccccn2)n2ncc(-c3ccccc3)c2n1	5%
COC(=O)NCC(c1cccnc1)N1CCN(c2ccc(F)cc2)CC1 (stereo not given)	2%
CC(C)CC(COCc1ccc([N+](=O)[O-])cc1)N1CCN(C(=O)c2ccc(C(F)(F)F)cc2)CCC1=O (stereo not given)	-12%
CC1(C)C(CC2OCC(CN3CCCCC3)O2)[C@H]2CC[C@@H]1C2 (stereo not given in full)	6%
Cc1ccc(C(=O)NC(C(=O)OCc2cn3cc(Cl)ccc3n2)C(C)C)cc1 (stereo not given)	7%
Cc1ccc(NC(=O)O/N=C/c2ccc(F)cc2)cc1	-9%

Reformatted with bars between the fields: entries from further up
mol | VDR inh
Cc1csc(NC(=O)CSc2nc(C)nc3c2c(=O)n(C)c(=O)n3C)n1 | -1%
Cc1ccc(C(=O)NC(C(=O)OCc2cn3cc(Cl)ccc3n2)C(C)C)cc1 (stereo not given) | 7%
COCCCNCCOCCOc1ccc(Cl)cc1Br | -9%

Of the compounds above, 2 contain a tert-butyl group:
SMILES	VDR inh
CC1CCN(C(=O)c2[nH]cnc2C(=O)N[C@@H](CCCCNC(=O)OC(C)(C)C)C(=O)OC(C)(C)C)CC1	-7%
CC(C)(C)c1cc(NCc2ccccn2)n2ncc(-c3ccccc3)c2n1	5%

(listing goes on)
SMILES	VDR inh
Cn1c(=O)c2ncn(CC(=O)NC3CCCCCC3)c2n(C)c1=O	-11%
COc1cccc(N2C(=O)C3CCCN3C2c2ccc(N(C)C)cc2)c1 (stereo not given)	0%
CCCNC(=O)c1c(N)n(-c2cccc(OC)c2)c2nc3ccccc3nc12	10%
COC(=O)c1cc(C)ccc1OCc1ccc([N+](=O)[O-])cc1	9%
COc1ccc(-c2nc3sc(CCNC(=O)Cc4ccccc4)c(C)n3n2)cc1	9%
Cc1ccc(SCc2nc(N)nc(Nc3ccccc3C)n2)cc1C	-6%
CCOC(=S)N/C(=N\S(=O)(=O)c1ccccc1)c1ccccc1	-29%
COC(=O)c1c(C)[nH]c(C(=O)COC(=O)CCNS(=O)(=O)c2cccc(C(F)(F)F)c2)c1C	-9%
CC12CC3CC(C)(C1)CC(C(O)CN1CCOCC1)(C3)C2 (stereo not given)	4%
Cc1c(NC(=O)C(C)OC(=O)CNC(=O)c2ccccc2)c(=O)n(-c2ccccc2)n1C (stereo not given)	-4%
CC1CCC(C(C)C)C(OC(=O)COC(=O)c2ccc(=O)[nH]c2)C1 (stereo not given)	-1%
CC1(C)CC(=O)C2=C(C1)OC(N)=C(C#N)C2Cc1ccccc1 (stereo not given)	4%
Cc1cc(CNC(=O)c2ccc3oc(C(C)C)nc3c2)nn1C	-4%
Cc1cccc(N(CC(=O)NC2CCCC2)C(=O)CCC(=O)Nc2cc(C)on2)c1	4%
O=C(Cc1ccccc1)NC(NC(=S)Nc1cc(Cl)ccc1Cl)C(Cl)(Cl)Cl (stereo not given)	-23%

7 entries from above, arranged by the number in VDR inh, highest first:
| molecule | VDR inh |
| --- | --- |
| CCCNC(=O)c1c(N)n(-c2cccc(OC)c2)c2nc3ccccc3nc12 | 10% |
| COC(=O)c1cc(C)ccc1OCc1ccc([N+](=O)[O-])cc1 | 9% |
| Cc1cc(CNC(=O)c2ccc3oc(C(C)C)nc3c2)nn1C | -4% |
| Cc1ccc(SCc2nc(N)nc(Nc3ccccc3C)n2)cc1C | -6% |
| COC(=O)c1c(C)[nH]c(C(=O)COC(=O)CCNS(=O)(=O)c2cccc(C(F)(F)F)c2)c1C | -9% |
| Cn1c(=O)c2ncn(CC(=O)NC3CCCCCC3)c2n(C)c1=O | -11% |
| CCOC(=S)N/C(=N\S(=O)(=O)c1ccccc1)c1ccccc1 | -29% |

More compounds follow:
SMILES	VDR inh
COC(=O)[C@H](CC(C)C)NCc1cccc(CN[C@@H](CC(C)C)C(=O)OC)c1	5%
COC(=O)C1CCN(C(=O)COC(=O)CSc2ccc(C(N)=O)cc2[N+](=O)[O-])CC1	-28%
COc1cccc(-c2nc(NCc3ccccc3)c3ccccc3n2)c1	u
CCOC(=O)N1CCC(NC(=O)c2ccc(Cl)cc2)CC1	7%
O=C(CCC1CCCCC1)Nc1ccccc1C(=O)N1CCOCC1	-11%
CCOc1ccccc1C=C1SC(=S)N(CC)C1=O	-9%
Cc1oc2c(c1C(=O)Nc1cccc3ccccc13)CCCC2	u
O=C(COc1cccc(Br)c1)N/N=C1\CCSC1	u
Cc1ccc(N2C(=O)CC(N3CCN(c4ccc(F)cc4)CC3)C2=O)c(C)c1 (stereo not given)	15%
CC(C)CNC(=O)CSc1ccc(S(=O)(=O)N2CCN(C)CC2)cn1	-9%

Screening results from PubChem BioAssay.
